High-throughput results (PubChem BioAssay)
RN4220 kill = kills Staphylococcus aureus RN4220. 330,000 tested, 0.33% active. AID 1259311. S. aureus RN4220 growth, OD600, 16 h. inhibition, % (concentration not given with the values);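 active = z-score of -3 or lower and OD600 up to 0.18 on both plates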;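 also: plate controls were untreated cells for no effect and reference antibiotic for full effect; stock transfer was 100 nL into about 80 µL; one replicate is shown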
Bead autofluor = counter-screen for toxin protease inhibitors: compound fluorescence. compound autofluorescence counterscreen, microsphere flow cytometry; hits give high values. 360,000 tested, 3.1% active. fluorescence intensity (no concentration beside the values). AID 624483;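 active = at least 3 SD above the mean of all compounds, about 16000 in these data; inconclusive = too few beads counted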;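 also: 100 nL of 1 mM stock went into each well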
Sa ugtP lethal = kills S. aureus RN4220 lacking UgtP; AID 1259309; S. aureus RN4220 ugtP deletion, OD600 growth, 16 h; some inactives read as strong as hits; growth inhibition, % (concentration not given with the values); 330,000 tested, 0.54% active;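 active = z-score under -3 and OD600 up to 0.15 on both plates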;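 also: plate controls were untreated wells for no effect and antibiotic for full effect; wells of about 80 µL received 100 nL stock; the first replicate is given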
BJeLR viability = kills HRASV12-expressing BJeLR cells. BJeLR (HRASV12) viability, CellTiter-Glo ATP luminescence, 48 h; reference of the scale not given here. inhibition, % (concentration not given with the values). 300,000 tested, 0.17% active. AID 1554;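 active = replicate mean above 50%; inconclusive = above 50% but judged a plate artefact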;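 also: 50 nL library stock added to about 25 µL; numbers are from one replicate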
PrP 5UTR inh = suppresses PrP 5' UTR mRNA reporter expression; inhibition, % (no concentration beside the values); AID 488862; cell-based PrP 5' UTR mRNA reporter, plate reader; 340,000 tested, 0.35% active;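 active = every replicate at 50% or more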;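 also: 0 = median of the neutral control wells; tested in H4 reporter cells; numbers are from one replicate; inactives centre near -14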
Mtb hypoxia inh = Mtb hypoxia fluorescent reporter inhibition. M. tuberculosis hypoxia-regulated fluorescent reporter, fluorescence. fluorescence inhibition, % (concentration not given with the values). 300,000 tested, 0.1% active;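 active = 35 to 45% if threefold the growth effect, above 45% if 1.5-fold the growth effect; inactive = the rest, general growth blockers included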;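 also: wells of about 50 µL received 100 nL stock; 0% = vehicle wells and 100% = reference inhibitor wells; whole bacteria with a GFP reporter of the hypoxia response; strong numbers were not always called active; many hits fall short of the cut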
Mtb hypoxia inh growth = also measured in Mtb hypoxia inh; calls as there; growth inhibition, %; measured here: M. tuberculosis growth (absorbance);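 0% = vehicle and 100% = reference antibiotic; read after six days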
An asterisk follows results filed as active.

O=C(c1ccc(S(=O)(=O)Nc2ccccc2Cl)cc1)N1CCOCC1 was read as RN4220 kill 5.4, Bead autofluor 5520, Sa ugtP lethal 2, BJeLR viability 12, PrP 5UTR inh -17, Mtb hypoxia inh 13 and Mtb hypoxia inh growth 3.
For Cc1cc(C)n2nc(C(=O)Nc3ccc(S(=O)(=O)N4CCCCC4)cc3)nc2n1 the results were RN4220 kill -2.3, Bead autofluor 4674, Sa ugtP lethal -1, BJeLR viability 3 and PrP 5UTR inh -13.
O=C(Nc1c(Cl)cccc1Cl)C1CCC1 was read as RN4220 kill 4.2, Bead autofluor 7934, Sa ugtP lethal 12, BJeLR viability 1, PrP 5UTR inh 3, Mtb hypoxia inh 16 and Mtb hypoxia inh growth 5.
`Cc1nc(NC(=O)CC(C)C)sc1-c1csc(Nc2ccc(Cl)cc2)n1` gave RN4220 kill -19, Bead autofluor 4592, Sa ugtP lethal -54, BJeLR viability 9, PrP 5UTR inh -18, Mtb hypoxia inh 8 and Mtb hypoxia inh growth 6.
`CC(C)(C)NS(=O)(=O)c1ccc2nc(NC(=O)Cc3cccs3)sc2c1` gave RN4220 kill 12, Bead autofluor 5297, Sa ugtP lethal 2, BJeLR viability -8 and PrP 5UTR inh -6.
For COc1cc2c(cc1OC)C(C)=NC1(CCCCC1)C2 the results were RN4220 kill 2.7, Bead autofluor 5814, Sa ugtP lethal 7, BJeLR viability -1, PrP 5UTR inh 2, Mtb hypoxia inh 17 and Mtb hypoxia inh growth 6.
COc1cccc(-c2nn(-c3ccc(C)cc3)cc2C(=O)N2CCc3cc(OC)c(OC)cc3C2)c1 was read as RN4220 kill 2.3, Bead autofluor 4818, Sa ugtP lethal 0, BJeLR viability -5, PrP 5UTR inh -16, Mtb hypoxia inh -7 and Mtb hypoxia inh growth 3.
For Cn1ccnc1C1CCCCN1Cc1nc(-c2ccc3c(c2)OCO3)no1 (configuration not stated) the results were RN4220 kill 2.6, Bead autofluor 3887, Sa ugtP lethal 4, BJeLR viability -33, PrP 5UTR inh -15, Mtb hypoxia inh 0 and Mtb hypoxia inh growth 4.
For CN(CC(=O)Nc1ccc(F)cc1)C(=O)COc1ccc([N+](=O)[O-])cc1Cl the results were RN4220 kill 1.9, Bead autofluor 4266, Sa ugtP lethal 3, BJeLR viability -1, PrP 5UTR inh -31, Mtb hypoxia inh 11 and Mtb hypoxia inh growth 3.
O=C1NC2=C(C(=O)CCC2)C(c2ccc(OC(F)F)cc2)N1 (configuration not stated) was read as RN4220 kill 2.2, Bead autofluor 3660, Sa ugtP lethal 7, BJeLR viability 0, PrP 5UTR inh -13, Mtb hypoxia inh -8 and Mtb hypoxia inh growth -7.
Screening C/C(CC(=O)Nc1ccc(Cl)cc1Cl)=N\NC(=O)C(=O)NCCO returned Bead autofluor 2611, BJeLR viability 21 and PrP 5UTR inh -20.
`O=C(Cn1nnc(-c2cccc(C(F)(F)F)c2)n1)NC1CCCC1` gave RN4220 kill -16, Bead autofluor 2834, Sa ugtP lethal -3, BJeLR viability 5 and PrP 5UTR inh -9.
For NC(=O)c1ccsc1NC(=O)c1ccc(S(=O)(=O)N2CCCCC2)cc1 the results were RN4220 kill 7.7, Bead autofluor 5919, Sa ugtP lethal 0, BJeLR viability 10, PrP 5UTR inh -30, Mtb hypoxia inh 11 and Mtb hypoxia inh growth 10.
For CCOP(=O)(OCC)C(O)c1ccccc1 (configuration not stated) the results were RN4220 kill 2.0, Bead autofluor 6489, Sa ugtP lethal 4, BJeLR viability 5, PrP 5UTR inh -30, Mtb hypoxia inh -6 and Mtb hypoxia inh growth -2.
O=C(CC(SCCO)c1ccc(F)cc1)c1ccco1 (configuration not stated) was read as RN4220 kill 8.1, Bead autofluor 2296, Sa ugtP lethal -7, BJeLR viability 2, PrP 5UTR inh -24, Mtb hypoxia inh 23 and Mtb hypoxia inh growth 28.
CCC1=C(OC(=O)N(CC)CC)N2C(=O)OC(=NCC(=O)OC)[C@]2(Cc2ccccc2)[C@H]2C1=CC[C@H]1C(=O)NC(=O)[C@H]12 was read as Bead autofluor 3044, BJeLR viability 16 and PrP 5UTR inh -14.
For CC(C)Oc1ccc(C(=O)Nc2cc(S(=O)(=O)N3CCOCC3)ccc2N2CCOCC2)cc1 the results were RN4220 kill -1.8, Bead autofluor 5963, Sa ugtP lethal 3, PrP 5UTR inh -20, Mtb hypoxia inh -1 and Mtb hypoxia inh growth -4.
`CCc1c(C)nc(N)nc1N1N=C1SCCOc1ccccc1` gave RN4220 kill -5.7, Bead autofluor 3966, Sa ugtP lethal 4, BJeLR viability -4, PrP 5UTR inh -34, Mtb hypoxia inh 16 and Mtb hypoxia inh growth 4.
Screening COc1cccc(CN2CCc3ccc(NC(=O)CCc4ccc(C)cc4)cc3C2)c1O returned Bead autofluor 5953, BJeLR viability 7 and PrP 5UTR inh -1.
For COc1ccc(C=NNC(=O)c2ccn[nH]2)cc1Cn1cc([N+](=O)[O-])cn1 the results were RN4220 kill 2.7, Sa ugtP lethal 4, Mtb hypoxia inh 4 and Mtb hypoxia inh growth 7.

3 entries already listed, sorted by count of non-hydrogen atoms, low to high.
O=C1NC2=C(C(=O)CCC2)C(c2ccc(OC(F)F)cc2)N1 (configuration not stated) was read as RN4220 kill 2.2, Bead autofluor 3660, Sa ugtP lethal 7, BJeLR viability 0, PrP 5UTR inh -13, Mtb hypoxia inh -8 and Mtb hypoxia inh growth -7.
For CC(C)Oc1ccc(C(=O)Nc2cc(S(=O)(=O)N3CCOCC3)ccc2N2CCOCC2)cc1 the results were RN4220 kill -1.8, Bead autofluor 5963, Sa ugtP lethal 3, PrP 5UTR inh -20, Mtb hypoxia inh -1 and Mtb hypoxia inh growth -4.
COc1cccc(-c2nn(-c3ccc(C)cc3)cc2C(=O)N2CCc3cc(OC)c(OC)cc3C2)c1 was read as RN4220 kill 2.3, Bead autofluor 4818, Sa ugtP lethal 0, BJeLR viability -5, PrP 5UTR inh -16, Mtb hypoxia inh -7 and Mtb hypoxia inh growth 3.

(list continues)
For CC(C)(C)c1csc(NC(=O)Nc2ccccc2)n1 the results were RN4220 kill 2.8, Bead autofluor 3673, Sa ugtP lethal -28, BJeLR viability -2, PrP 5UTR inh -85, Mtb hypoxia inh 4 and Mtb hypoxia inh growth 6.
`Cc1cc(CNC(=O)COc2cc(F)ccc2[N+](=O)[O-])c2ccccc2n1` gave RN4220 kill 1.4, Bead autofluor 3857, Sa ugtP lethal 5, BJeLR viability 7, PrP 5UTR inh -19, Mtb hypoxia inh 9 and Mtb hypoxia inh growth 4.
CCn1c(C)nc2cc(C(=O)NNC(=O)Nc3ccc(Cl)c(Cl)c3)ccc21 was read as RN4220 kill -0.3, Sa ugtP lethal -10, BJeLR viability -3, Mtb hypoxia inh -2 and Mtb hypoxia inh growth 0.
Screening COc1ccc(CCNC(=S)NCCc2c[nH]c3ccccc23)cc1 returned RN4220 kill 1.9, Bead autofluor 3307, Sa ugtP lethal 0, BJeLR viability 13, PrP 5UTR inh -25, Mtb hypoxia inh -6 and Mtb hypoxia inh growth 18.
Screening CCC(C(N)=NCCc1ccc(OC)c(OC)c1)c1ccccc1 (configuration not stated) returned RN4220 kill 0.9, Bead autofluor 3915, Sa ugtP lethal -1, BJeLR viability 8, PrP 5UTR inh -8, Mtb hypoxia inh 3 and Mtb hypoxia inh growth -1.
`Cc1ccc(N(C(=O)Cn2nnc(-c3ccc(F)cc3)n2)C(CC(C)C)C(=O)NCC2CCCO2)cc1` (configuration not stated) gave RN4220 kill 1.2, Bead autofluor 23138*, Sa ugtP lethal 1, BJeLR viability -12, PrP 5UTR inh -13, Mtb hypoxia inh 4 and Mtb hypoxia inh growth 6.
`C=CCOc1ccc(CN(C)C(=O)CN2C(=O)c3ccccc3C2=O)cc1` gave RN4220 kill -2.2, Bead autofluor 3874, Sa ugtP lethal 0, BJeLR viability -4, PrP 5UTR inh -19, Mtb hypoxia inh 5 and Mtb hypoxia inh growth -2.
`Cc1cccc(NC(=S)N2CCCCC2)c1` gave RN4220 kill 3.3, Bead autofluor 2467, Sa ugtP lethal 0, BJeLR viability -28 and PrP 5UTR inh -6.
Screening CCOc1cccc2cc(-c3nnc(NCc4ccco4)s3)c(=O)oc12 returned RN4220 kill 5.8, Bead autofluor 4191, Sa ugtP lethal -5, BJeLR viability 1, PrP 5UTR inh -28, Mtb hypoxia inh 12 and Mtb hypoxia inh growth 9.
For CCN(CC(=O)Nc1cccc(OC)c1)C(=O)c1cccc(S(=O)(=O)N2CCc3ccccc32)c1 the results were RN4220 kill 11, Bead autofluor inconclusive, Sa ugtP lethal -3, PrP 5UTR inh -2, Mtb hypoxia inh 7 and Mtb hypoxia inh growth 13.
CCCCC(=O)NC(=S)NNC(=O)c1ccc(Cl)cc1Cl was read as RN4220 kill 30, Bead autofluor 4394, Sa ugtP lethal 16, BJeLR viability 6, PrP 5UTR inh -7, Mtb hypoxia inh 9 and Mtb hypoxia inh growth 16.
Screening COc1ccc(C(=O)N2CCC(C(=O)Nc3ccc4c(c3)OCCO4)CC2)cc1 returned RN4220 kill -1.7, Sa ugtP lethal -2, BJeLR viability 3, PrP 5UTR inh -10, Mtb hypoxia inh 11 and Mtb hypoxia inh growth 0.
Screening CCCC[n+]1ccn(-c2nc3ccccc3nc2[N-]S(=O)(=O)c2ccccc2)c1 returned RN4220 kill 5.2, Bead autofluor 5842, Sa ugtP lethal -2, BJeLR viability 12, PrP 5UTR inh -12, Mtb hypoxia inh 2 and Mtb hypoxia inh growth 15.
Screening O=C(Nc1cccc(NC(=O)C2CC2)n1)C1CC1 returned RN4220 kill 0.1, Bead autofluor 9675, Sa ugtP lethal 0, BJeLR viability 5, PrP 5UTR inh -22, Mtb hypoxia inh 15 and Mtb hypoxia inh growth 21.
`CCOC(=O)N1CCN(C(=O)CSc2ccc3nnc(CCNC(=O)c4ccccc4)n3n2)CC1` gave RN4220 kill 0.4, Bead autofluor 4075, Sa ugtP lethal -2, BJeLR viability -7, PrP 5UTR inh -14, Mtb hypoxia inh -5 and Mtb hypoxia inh growth 4.
`CC(=O)c1cc2c(C)c(C(=O)c3ccccc3)oc2cc1O` gave RN4220 kill 6.6, Bead autofluor 2923, Sa ugtP lethal 39, BJeLR viability 7, PrP 5UTR inh -8, Mtb hypoxia inh 1 and Mtb hypoxia inh growth 7.
For Cc1nc2ccccc2n1CC(O)Cn1c2ccccc2c2ccccc21 (configuration not stated) the results were RN4220 kill -2.0, Bead autofluor 15620, Sa ugtP lethal -14, BJeLR viability 2, PrP 5UTR inh 13, Mtb hypoxia inh 2 and Mtb hypoxia inh growth -5.
CCC(=O)NN=C(C)CC(=O)Nc1ccccc1-c1ccccc1 was read as RN4220 kill 3.8, Sa ugtP lethal 0, Mtb hypoxia inh 8 and Mtb hypoxia inh growth 9.
`Cc1ccc(Nc2nc(C)nc3c2oc2ccccc23)cc1` gave RN4220 kill 16, Bead autofluor 4166, Sa ugtP lethal -25, BJeLR viability -3, PrP 5UTR inh 14, Mtb hypoxia inh 2 and Mtb hypoxia inh growth 12.
Screening O=C(Nc1nccs1)C1CCN(S(=O)(=O)c2ccc(F)cc2)CC1 returned RN4220 kill 0.3, Bead autofluor 5422, Sa ugtP lethal -1, BJeLR viability 5, PrP 5UTR inh 12, Mtb hypoxia inh 1 and Mtb hypoxia inh growth 13.
COc1cc([N+](=O)[O-])cc(C=NNC(=O)Cn2nc(C)cc2C)c1O was read as RN4220 kill 3.8, Sa ugtP lethal 3, Mtb hypoxia inh 14 and Mtb hypoxia inh growth 4.
`O=C(O)c1cccc(Cn2c(Cl)c(/C=N/NC(=O)c3ccco3)sc2=O)c1` gave Bead autofluor 5443, BJeLR viability 1 and PrP 5UTR inh -22.
For COc1ccc(/C=C/C(=O)c2ccc([N+](=O)[O-])o2)cc1 the results were Bead autofluor 3579, BJeLR viability 14 and PrP 5UTR inh 1.
Screening CC(C)(C)NC(=O)NC(=O)COC(=O)c1cccc(NS(=O)(=O)c2ccc(F)c(F)c2)c1 returned RN4220 kill 0.8, Bead autofluor 2013, Sa ugtP lethal -11, BJeLR viability 11, PrP 5UTR inh -10, Mtb hypoxia inh -11 and Mtb hypoxia inh growth 6.
Screening O=C(Cn1cccc1)N1CCN(C(c2ccccc2)c2ccccc2)CC1 returned RN4220 kill -5.9, Bead autofluor 11116, Sa ugtP lethal -3, BJeLR viability -2, PrP 5UTR inh -26, Mtb hypoxia inh -4 and Mtb hypoxia inh growth -4.
Screening CCOc1ccc(S(=O)(=O)NC(C)C)cc1C(N)=O returned RN4220 kill 4.8, Bead autofluor 3855, Sa ugtP lethal 3, BJeLR viability -14, PrP 5UTR inh 0, Mtb hypoxia inh 1 and Mtb hypoxia inh growth -1.
